RanGTP-Imp inh: inhibitors of RanGTP-importin-beta interaction, primary screen, biochemical, FRET, CFP-Ran, YFP-importin-beta, homogeneous; cell-free CFP-Ran/YFP-importin-beta FRET ratio; inhibition, % (test concentration not listed); 300,000 compounds, 1.1% hits; AID 2216;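 active = most replicates above 15%; inconclusive = exactly half above 15%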;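 note: 0% = DMSO wells and 100% = Ran loaded with GDP instead of GTP; wells of about 40 µL received 100 nL stock; the first replicate is given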
Beta apoptosis: beta cell apoptosis inhibition. protection from apoptosis, % (concentration not given with the values). INS-1E cytokine-induced death, ATP luminescence, 48 h; percent of positive-control rescue, neutral wells zero. 300,000 compounds, 0.8% hits;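 active = all replicates at 75% or more, or half of them and the mean; inconclusive = half reach 75% but not the mean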;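 note: 0% = cytokine-treated negative control wells and 100% = positive control rescue; higher means more ATP so stronger rescue from cytokine killing; wells of about 40 µL received 100 nL stock; the first replicate is given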
Ecoli rRNA inh: selective bacterial rRNA inhibition in E. coli; E. coli WT GFP vs humanized-ribosome RFP mutants, fluorescence, 24 h; active compounds read low; DMSO median 0, no signal -100; GFP signal change (wild-type ribosome), % (no concentration beside the values); 350,000 compounds, 1.6% hits;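 active = significant combined selectivity score with lowered wild-type GFP, culture density cut under 30%, mutant RFP and density less affected; inactive = any of these conditions unmet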; note: one replicate is shown; some compounds called inactive have numbers as strong as hits
AF4-AF9 inh: inhibitors of human MLL-AF4/AF9 interaction; P42568; AlphaScreen, biotin-AF4 peptide binding to FLAG-AF9; inhibition, % at 10 µM; 350,000 compounds, 0.47% hits; AID 651704;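 active = every replicate reaching a set inhibition limit, whatever the replicate mean, cut at about 25% in these data; inconclusive = mean inhibition reaches that limit but some replicates miss it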;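 note: 0% = plate neutral control median and 100% = total signal loss; the record names both 10 and 1 µM as test concentration; the first replicate is given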
Target sequence (P42568 whole entry, looked up): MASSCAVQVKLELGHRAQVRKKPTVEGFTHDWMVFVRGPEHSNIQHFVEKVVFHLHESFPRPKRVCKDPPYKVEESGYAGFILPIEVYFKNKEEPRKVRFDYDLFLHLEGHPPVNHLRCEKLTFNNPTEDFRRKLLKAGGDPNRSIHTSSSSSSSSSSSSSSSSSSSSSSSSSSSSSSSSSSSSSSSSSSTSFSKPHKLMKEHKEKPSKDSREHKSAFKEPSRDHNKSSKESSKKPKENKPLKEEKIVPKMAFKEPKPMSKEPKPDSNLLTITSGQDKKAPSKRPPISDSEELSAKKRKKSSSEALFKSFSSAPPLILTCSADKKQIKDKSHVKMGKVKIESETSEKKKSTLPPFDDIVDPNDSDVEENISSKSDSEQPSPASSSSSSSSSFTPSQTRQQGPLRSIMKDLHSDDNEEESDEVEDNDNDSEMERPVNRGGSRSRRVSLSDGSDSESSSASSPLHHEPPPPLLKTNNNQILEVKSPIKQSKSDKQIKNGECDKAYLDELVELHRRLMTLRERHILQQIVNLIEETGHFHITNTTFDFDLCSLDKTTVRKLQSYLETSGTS
Bfl-1 A1 inh: inhibitors of the anti-apoptotic protein A1, read as caspase activation | MEF A1-2A-BIM cells, Caspase-Glo 3/7 luminescence, 3 h; percent of clofoctol response, vehicle zero | AID 2462 | caspase activation, % (no concentration beside the values) | 330,000 compounds, 0.066% hits;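 active = over half of replicate activation scores above 10%, or exactly half above 10 with the replicate mean above 10; inconclusive = replicate mean below 10 yet half the replicates above 10; inactive = over half of replicates below 10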;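 note: wells of about 30 µL received 50 nL stock; many hits fall short of the cut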
Calb FLC: affects C. albicans growth with fluconazole; C. albicans CaCi-2 (fluconazole-resistant clinical isolate) + fluconazole, Alamar Blue growth, 48 h; growth inhibition, % (no concentration beside the values); 300,000 compounds, 0.57% hits;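 active = most replicates above 75%; inconclusive = exactly half above 75%; inactive = most below 75%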;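 note: all wells also contain fluconazole at 8 µg/ml as a sub-toxic cotreatment; 0% = median of DMSO wells and 100% = median of geldanamycin control wells; wells of about 8 µL received 7.5 nL stock; the first replicate is given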
Vif TR-FRET: inhibitors of Vif binding to APOBEC3G peptide, primary screen, biochemical, TR-FRET, GST-Vif 1-94, biotin-A3G peptide, dose response retest (AID 1117319) | one-dose inhibition, %; IC50 in µM for titrated hits | TR-FRET GST-Vif / biotin-A3G peptide binding; higher % means a stronger effect; test concentration not given here; strong numbers were not always called active | 260,000 compounds, 0.57% hits;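 active = above the screen mean plus three standard deviations and confirmed in dose response; inconclusive = results disagree or hit not tested in dose response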;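 note: Vif residues 1-94 fused to GST binding biotinylated APOBEC3G peptide 110-148; 0% = full assay without inhibitor and 100% = GST in place of GST-Vif; retest series ran down from 100 µM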
T cruzi inh: T. cruzi replication inhibition; T. cruzi beta-gal in NIH3T3, luminescence, 90 h; inhibition, % (concentration not given with the values); 300,000 compounds, 1.4% hits;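 active = mean inhibition across valid replicates above about 55%, limit read from the data; inconclusive = mean below that limit but half or more replicates reach it; inactive = mean below it, under half of replicates reach it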;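 note: signal also drops with host cell toxicity which is not excluded here; 0% = plate median of DMSO wells and 100% = zero luminescence signal; higher percent means less beta-gal luminescence so fewer parasites; stock transfer was 50 nL into about 50 µL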
Ecoli rRNA inh OD600: also measured in Ecoli rRNA inh; calls as there; OD600 change, %; measured here: OD600 growth;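 optical density of the mix in the first replicate; 0 = DMSO median and -100 = no signal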
Ecoli rRNA inh RFP: also measured in Ecoli rRNA inh; calls as there; RFP signal change, %; measured here: RFP humanized mutant strains;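 first replicate; 0 = DMSO median and -100 = no signal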
Numbers without * were called inactive; u = inconclusive; x = no result given; & = joins results of further samples. An excerpt; rates above refer to the full screens.

Value order: RanGTP-Imp inh	Beta apoptosis	Ecoli rRNA inh	Ecoli rRNA inh OD600	Ecoli rRNA inh RFP	AF4-AF9 inh	Bfl-1 A1 inh	Calb FLC	Vif TR-FRET	T cruzi inh
Cc1ccc(-c2nc3c(c(SCC(=O)N4CCOCC4)n2)COC(C)(C)C3)cc1
    6.0	-2	17	10	2.6	1.2	-0.9	35	x	13
CCOC(=O)COn1c(=O)c[n+]([O-])c2ccccc21
    -1.3	-8	x	x	x	x	0.2	1	-3%	-9
O=C1CCC(C(=O)N2CCCC2)CN1Cc1cccc(C(F)(F)F)c1 (centres undefined)
    -1.9	-1	9	19	-2.2	-2.5	-0.8	-11	x	-3
COc1cc(C(=O)Nc2ccc(N3CCN(C(=O)c4ccc(C)cc4)CC3)cc2)cc(OC)c1OC
    8.2	12	12	15	6.5	1.9	0.4	-5	-4%	-1
COc1ccc(C(=O)NC2CCCc3ccccc32)cc1S(=O)(=O)N1CCOCC1 (centres undefined)
    2.6	8	4	15	-2.6	-1.7	0.4	-2	x	1
COCCN(C(=O)c1csnn1)C(C(=O)NC1CCCCC1)c1sccc1C (centres undefined)
    2.8	-2	x	x	x	x	0.2	27	4%	8
COc1ccccc1N1CCN(C(=S)NC(=O)/C=C/c2ccccc2)CC1
    4.4	-10	-11	-8	0.1	x	2.3	-9	-5%	-4
CC1=Nc2ccccc2/C1=C\c1nc(-c2ccccc2)oc1O
    -0.9	0	x	x	x	x	0.9	-22	-6%	7
CCOc1ccc(NC(=O)CN2C(=O)COc3ccccc32)cc1
    2.4	2	10	11	-1.3	-6.4	-0.7	-1	x	5
COc1ccc(N2C(=O)/C(=C\c3ccco3)N=C2SCC(N)=O)cc1Cl
    3.3	2	4	4	2.0	1.7	-0.7	12	x	-21
CCOC(=O)[C@@H]1[C@H]2COc3ccc(Br)cc3[C@@H]2N2C(=O)N(c3ccc(Cl)cc3)C(=O)[C@]12C
    u	-3	7	13	-4.1	2.3	0.5	10	x	1
CN(c1ccccc1)S(=O)(=O)c1cccc(NC(=O)c2ccncc2)c1
    -0.8	38	-15	-3	-1.7	3.1	0.2	-5	x	5
CCOC(=O)C1CCCN(C(=O)CCNS(=O)(=O)c2ccc3c(c2)CCC(=O)N3)C1 (centres undefined)
    1.4	0	x	x	x	x	0.8	36	-5%	2
CCNc1nc(Cl)nc(NCc2ccccc2)n1
    2.9	-5	x	x	x	x	0.3	-21	2%	-3
Clc1ccc(-c2csc(N3CCOCC3)n2)cc1
    1.5	x	21	7	3.0	4.1	x	16	x	-13
COc1ccc(C(c2nnnn2Cc2ccccc2)N2CCN(C(=O)c3ccco3)CC2)cc1OC (centres undefined)
    1.1	0	x	x	x	x	1.6	-4	6%&7%	7
O=S(=O)(Cc1ccccc1)N1CCN(Cc2ccc3c(c2)OCO3)CC1
    159*	-1	x	x	x	x	-0.1	-50	u	-3
C/C(=N\Nc1ccc(C(=O)O)cc1)c1ccc(-n2ccnc2)cc1
    4.0	-2	-9	-10	-2.4	-11	-0.5	-6	-13%	-6
COc1cccc(OC)c1CNC(=O)CCSCc1ccccc1F
    -3.6	2	-35*	-13*	-3.4*	0.0	1.0	-4	2%	9
C[C@H](CO)N1C[C@H](C)[C@@H](CN(C)S(=O)(=O)c2ccccc2)Oc2ccc(NC(=O)c3ccncc3)cc2C1=O
    x	-4	1&-8	-3&0	0.2&3.3	-0.6&-2.1	0.4	x	x	x
NC(=O)CSc1nc(N)c2c3c(sc2n1)CCCCC3
    -3.2	-4	x	x	x	x	0.4	-7	-4%	-8
COc1ccc(CCNc2nc3ccccc3n3cnnc23)cc1OC
    u	x	2	-3	-3.4	2.7	x	32	-12%	-4
CSc1ncccc1C(=O)OCC(=O)NC(N)=O
    -2.1	-6	x	x	x	x	0.8	u	1%	-11
CN(C)c1cc(N/N=C/c2ccccc2C(F)(F)F)nc(N(C)C)n1
    3.5	x	-10	-5	-1.1	-0.4	0.8	-14	0%	u
CCOC(=O)c1nnn(-c2nonc2N)c1CSc1ccccc1
    8.4	x	x	x	x	x	0.7	19	9%	5
CCOc1ccc(CCNC(=O)CCS(=O)(=O)c2ccc(C)cc2)cc1OCC
    -1.3	-8	5	9	1.2	-5.9	0.3	0	5%	1
CCOc1ccc(S(=O)(=O)NC2CCCCC2C)cc1 (centres undefined)
    0.1	-3	-8	-15	2.2	-2.0	0.1	-16	6%	-24
O=C(Nc1ccc(Cl)c(Cl)c1)c1ccc(Cl)c(Cl)c1
    -0.4	3	-17*	-2.5*	5.6*	-3.7	1.0	x	22%	20
COc1ccc(CCNC(=O)CSC2=NS(=O)(=O)c3ccccc3N2)cc1OC
    0.4	x	3	4	-1.2	-9.2	0.4	-10	-2%	2
Clc1ccc(N2CCN(c3ccnc(Cl)n3)CC2)cc1
    -1.3	x	-5	2	1.5	2.7	-0.9	-5	x	35

The list goes on, starting with the last 3 of the part before.
Value order: RanGTP-Imp inh	Beta apoptosis	Ecoli rRNA inh	Ecoli rRNA inh OD600	Ecoli rRNA inh RFP	AF4-AF9 inh	Bfl-1 A1 inh	Calb FLC	Vif TR-FRET	T cruzi inh
O=C(Nc1ccc(Cl)c(Cl)c1)c1ccc(Cl)c(Cl)c1
    -0.4	3	-17*	-2.5*	5.6*	-3.7	1.0	x	22%	20
COc1ccc(CCNC(=O)CSC2=NS(=O)(=O)c3ccccc3N2)cc1OC
    0.4	x	3	4	-1.2	-9.2	0.4	-10	-2%	2
Clc1ccc(N2CCN(c3ccnc(Cl)n3)CC2)cc1
    -1.3	x	-5	2	1.5	2.7	-0.9	-5	x	35
Cc1ccc(NC(=O)Cn2c(C)cc(C)c(C#N)c2=O)c(Cl)c1
    -4.4	-2	x	x	x	x	-0.2	8	-2%	-5
COc1ccc(C2CC2/C(=N/O)c2ccccc2)cc1 (centres undefined)
    -1.8	-5	-28	-36	-3.2	0.2	-0.2	3	1%	11
COc1cccc(NC(=O)C(c2ccccc2)N2CCCCC2)c1 (centres undefined)
    -1.9	2	12	5	0.1	-0.9	0.6	8	-7%	1
Cc1ccc(NS(=O)(=O)c2ccc(Br)s2)nc1
    0.5	0	3	-2	-1.4	-2.2	-1.0	3	14%	4
CC(=O)Nc1ccccc1-c1nc2ccccc2nc1OCC(=O)c1ccc2ccccc2c1
    -0.9	5	x	x	x	x	-0.2	-3	-2%	6
CCn1cnc2c1c(=O)n(Cc1nnc3n1-c1ccccc1SC3)c(=O)n2Cc1ccccc1
    -3.7	2	x	x	x	x	0.6	-13	u	17
Nc1nnc(CSCc2ccccc2Cl)s1
    -1.6	1	x	x	x	0.0	0.3	-10	4%	-10
O=C(O)CC(NC(=O)COc1ccc(Cl)cc1Cl)C(=O)O (centres undefined)
    1.4	-7	x	x	x	x	-0.5	-9	u	-5
O=C(Nc1cccc(Cl)c1)c1cccc(Oc2ccc([N+](=O)[O-])cc2Cl)c1
    -1.9	1	1	3	-2.6	-1.1	-1.3	-6	3%	-12
COCc1nc2oc3ccc(C)cc3c(=O)c2cc1C(=O)OC
    -3.8	1	1	4	-1.8	0.3	-8.1	-1	0%	-4
Cc1ccccc1C(C)NS(=O)(=O)c1ccc2c(c1)OCCO2 (centres undefined)
    x	-3	-3	-1	5.9	1.4	0.5	x	x	x
O=C(Nc1cc(Cl)ccc1N1CCOCC1)c1ccc(N2CCCC2=O)cc1
    -4.4	-2	4	6	-2.5	-16	0.3	4	-11%	-1
O=C(NCc1cccs1)C(=O)c1cn(CC(=O)N2CCCC2)c2ccccc12
    x	-7	-13	-10	4.0	1.6	-0.4	5	1%	x
CN1CCc2c(sc3nc(SCC(=O)N4CCCCC4)n(-c4ccccc4)c(=O)c23)C1
    4.4	-5	4	9	1.3	-0.5	2.7	-6	19%	37
COc1cc(/C=C(\C#N)c2nc3ccccc3[nH]2)ccc1OC(=O)c1ccco1
    8.6	-5	x	x	x	0.3	-9.2	-2	7%	13
Nc1ccc(C(=O)c2cccs2)cc1[N+](=O)[O-]
    4.3	-5	-13	-12	-3.9	6.5	-0.1	126*	7%	9
COC(=O)c1ccc(C)c(NS(=O)(=O)c2ccc(OC)c(OC)c2)c1
    -0.6	x	x	x	x	x	-0.1	47	6%	-11
CCOc1ccc(S(=O)(=O)NCCC(=O)NCC2(N3CCCCC3)CCCCC2)cc1
    -4.1	x	4	6	-2.6	-0.8	0.6	-10	5%	-4
O=C(CSc1ccc(-c2ccncc2)nn1)c1ccc(Cl)cc1
    0.3	-1	7	8	10	-11	-0.4	4	-3%	-1
NC(=S)NN=C(c1ccccc1)c1ccccc1
    -0.1	-5	-10	-20	-1.5	11	0.6	-15	-1%	-14
CN1C(=O)NC(c2ccccc2)C2=C1CN(CCc1ccccc1)C2=O (centres undefined)
    -2.6	-14	x	x	x	x	x	-4	-1%	-4
COc1ccc2nc(C)c(C(=O)NN)cc2c1
    -1.4	-10	x	x	x	x	0.5	3	2%	-16

Entries listed so far that bear a hit mark in RanGTP-Imp inh.
| Molecule | RanGTP-Imp inh | Ecoli rRNA inh | Ecoli rRNA inh OD600 | Ecoli rRNA inh RFP | AF4-AF9 inh | Vif TR-FRET |
| --- | --- | --- | --- | --- | --- | --- |
| O=S(=O)(Cc1ccccc1)N1CCN(Cc2ccc3c(c2)OCO3)CC1 | 159* | x | x | x | x | u |

Screens deposited in PubChem BioAssay by several laboratories.
